# Compound activity deposited in PubChem by several laboratories.
# Autofluor counter: compound fluorescence in toxin protease inhibitor counterscreen. compound autofluorescence counterscreen, microsphere flow cytometry; active compounds read high. fluorescence intensity (test concentration not listed). hit rate 3.1% among 360,000. AID 624483;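 active means at least 3 SD above the mean of all compounds, about 16000 in these data; inconclusive means too few beads counted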;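 further: 100 nL of 1 mM stock went into each well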
# Sa ugtP lethal: compounds lethal to S. aureus RN4220 ugtP deletion mutant; AID 1259309; hit rate 0.54% among 330,000; growth inhibition, % (test concentration not listed); OD600 growth, 16 h; some inactives read as strong as hits;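 active means z-score under -3 and OD600 up to 0.15 on both plates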;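 further: plate controls were untreated wells for no effect and antibiotic for full effect; wells of about 80 µL received 100 nL stock; the first replicate is given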
# BJeLR viability: BJeLR cell viability loss; BJeLR (HRASV12) viability, CellTiter-Glo ATP luminescence, 48 h; reference of the scale not given here; hit rate 0.17% among 300,000; AID 1554; inhibition, % (test concentration not listed);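 active means replicate mean above 50%; inconclusive means above 50% but judged a plate artefact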;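 further: 50 nL library stock added to about 25 µL; numbers are from one replicate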
# PrP 5UTR inh: suppresses PrP 5' UTR mRNA reporter expression; cell-based PrP 5' UTR mRNA reporter, plate reader; inhibition, % (test concentration not listed); hit rate 0.35% among 340,000; AID 488862;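 active means every replicate at 50% or more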;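 further: 0 = median of the neutral control wells; tested in H4 reporter cells; numbers are from one replicate; inactives centre near -14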
# RN4220 kill: kills Staphylococcus aureus RN4220; AID 1259311; inhibition, % (test concentration not listed); S. aureus RN4220 growth, OD600, 16 h; hit rate 0.33% among 330,000;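 active means z-score of -3 or lower and OD600 up to 0.18 on both plates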;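 further: plate controls were untreated cells for no effect and reference antibiotic for full effect; stock transfer was 100 nL into about 80 µL; one replicate is shown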
# Mtb hypoxia inh: reduces hypoxia-regulated biosensor signal in M. tuberculosis. fluorescence inhibition, % (no concentration beside the values). M. tuberculosis hypoxia-regulated fluorescent reporter, fluorescence. hit rate 0.1% among 300,000. AID 1159583;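 active means 35 to 45% if threefold the growth effect, above 45% if 1.5-fold the growth effect; inactive means the rest, general growth blockers included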;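 further: wells of about 50 µL received 100 nL stock; 0% = vehicle wells and 100% = reference inhibitor wells; whole bacteria with a GFP reporter of the hypoxia response; strong numbers were not always called active; many hits fall short of the cut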
# Mtb hypoxia inh growth: recorded beside Mtb hypoxia inh, whose call it bears; growth inhibition, %; measured here: M. tuberculosis growth (absorbance);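 0% = vehicle and 100% = reference antibiotic; read after six days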
# Numbers without * were called inactive; ? = inconclusive; nt = not tested or not shown.
SMILES	Autofluor counter	Sa ugtP lethal	BJeLR viability	PrP 5UTR inh	RN4220 kill	Mtb hypoxia inh	Mtb hypoxia inh growth
CCCCN(CC)CCNC(=O)C1CCCN(S(=O)(=O)c2cccc3nsnc23)C1 (stereo not drawn)	5603	1	4	-7	1.9	3	4
CCOCC(=O)Nc1ccc([N+](=O)[O-])cc1Cl	3467	3	1	-25	5.8	7	10
Cn1c(/C=C/c2ccccc2[N+](=O)[O-])nc2ccccc2c1=O	3076	6	-3	-32	3.8	-3	0
CCOc1ccc(Br)cc1S(=O)(=O)N1CC(C)OC(C)C1 (stereo not drawn)	15484	-6	8	4	1.4	-9	1
O=C(COC(=O)c1ccc(CSc2ccc(Cl)cc2)cc1)Nc1ccccc1	2045	14	-5	-19	4.1	4	5
CCn1c(SCC(=O)c2cc(C)n(-c3ccc(C(=O)OC)cc3)c2C)nnc1-c1cccnc1	4181	-8	-6	-24	-3.4	-4	12
Cc1ccc(C)c(NC(=S)NNC(=O)c2csc3c2CCCC3)c1	16276*	21	4	-14	6.3	8	6
COC(=O)CCCNS(=O)(=O)c1ccc2ccccc2c1	2638	-6	nt	3	-4.4	nt	nt
COC(=O)c1ccccc1NC(=O)Cn1cnc2c1c(=O)n(C)c(=O)n2C	3996	6	14	-28	1.1	-3	6
COc1cc(C=Nc2oc(C)c(C)c2C#N)cc(Br)c1O	nt	12	nt	nt	3.3	2	-12
CC1CCCN(CCCNC(=O)c2ccc(N3CCCC3=O)cc2)C1 (stereo not drawn)	6008	7	2	-13	2.4	4	0
C=CCN(CC=C)S(=O)(=O)c1ccc(C(=O)Nc2nc3c(s2)CCc2ccccc2-3)cc1	10956	1	6	-18	4.4	-10	0
Cc1sc2ncn(-n3c(C)ccc3C)c(=O)c2c1C	3428	0	0	-10	3.3	15	8
CCN(Cc1ccncc1)C(=O)CCc1ccccc1	3797	2	-7	-18	-1.6	-2	19
COc1cc(NC(=O)COC(=O)CO/N=C(\C)c2ccc3c(c2)OCO3)cc(OC)c1OC	6630	nt	-2	-9	nt	nt	nt
C#CCOCCOCCOCCNc1nc(N2CCN(C(=O)CCCCCCCCCCNC(=O)Cn3cc(CCCCCN)nn3)CC2)nc(N2CCN(C(=O)CCCCCCCCCCNC(=O)C(CCC(=O)O)n3cc(CCCCCN)nn3)CC2)n1 (stereo not drawn)	nt	7	nt	nt	6.2	7	5
CCCc1cc(=O)oc2cc(OCC(=O)N3CCN(Cc4ccc5c(c4)OCO5)CC3)ccc12	5643	-3	3	-4	-4.0	-5	7
Cc1cccc(OC2CCN(Cc3nc(CC4CC4)no3)CC2)c1	3257	6	6	-15	16	14	16
COc1cccc(CN2CCNC(=O)C2CC(=O)N(C)Cc2cnccn2)c1OC (stereo not drawn)	4716	0	0	7	-0.1	7	3
CN(C)c1cc(-c2ccccc2)nc(-c2ccccc2)n1	3371	3	2	-2	0.8	-4	4
COC(=O)C1=C(c2c(C)noc2C)C[C@@H]2CC[C@H]1N2C(=O)NCCOc1ccccc1	2883	0	nt	-22	-11	-1	1
COC(=O)CN(c1ccc2c(c1)OCO2)S(C)(=O)=O	24591*	1	2	-8	4.6	-1	-2
CCCCNC(=O)c1cn(-c2ccc(OCC)cc2)c(=O)c2cc(OC)c(OC)cc12	?	9	1	-13	-3.0	1	0
O=C1NC(=O)C2(CCc3ccccc32)N1 (stereo not drawn)	2456	-1	0	-15	-4.8	22	8
COc1ccc(C2=NO[C@@](CC(=O)O)(C(=O)Nc3ccc4c(c3)OCCO4)C2)cc1	3677	5	8	-23	2.2	10	8
O=C(O)c1ccc(Nc2nc(-c3cccnc3)cs2)cc1	3171	25	-4	-39	3.4	9	2
Cc1ccc(S(=O)(=O)/C(C#N)=C/c2c[nH]c3ccccc23)cc1	11451	-3	-9	-6	3.3	-2	-2
CCc1nnc(SCCSc2nnc(CC)n2N)n1N	2392	4	12	5	-0.2	nt	nt
O=C(CSc1nnc(-c2cccs2)n1-c1ccccc1)N1CCOCC1	4043	-3	-13	-21	-2.2	3	3
CS(=O)(=O)N(CCc1ccccc1)CC(=O)NCc1ccc2c(c1)OCO2	3116	9	-4	-12	1.2	5	14
O=[N+]([O-])c1cnc2ccc3ccccc3c2c1	3925	24	-13	-27	31	-3	6
Cc1noc(C)c1NC(=O)N(C)C[C@H]1Oc2c(NC(=O)NC(C)C)cccc2C(=O)N([C@H](C)CO)C[C@@H]1C	3495	-6	nt	-20	-13	0	0
O=C(Nc1cc(Oc2ccc(Cl)cc2)cc([N+](=O)[O-])c1)c1ccco1	2569	-20	-5	-18	-8.5	-7	11
Nn1c(SCC(=O)Nc2ccc(N3CCOCC3)cc2)nnc1-c1cccc(F)c1	3948	-1	nt	-37	1.4	-5	5
O=C1/C(=C/c2coc3ccc(O)cc3c2=O)SC(=S)N1c1ccccc1	?	16	5	3	3.1	15	2
CCC1CCCCN1C(=O)CSc1nc2c(c(=O)n(C)c(=O)n2C)n1C (stereo not drawn)	4726	2	1	-20	3.4	10	5
COc1ccc(OCC(=O)N2CCCC(CO)(CCOc3ccccc3)C2)cc1 (stereo not drawn)	6378	-2	11	-5	4.5	6	3
CCOC(=O)c1cc2c(C(F)(F)F)cc(-c3ccccc3)nc2o1	10452	5	4	-1	-1.7	0	3
C=CCNC(=S)Nc1ccc(F)cc1F	2121	1	2	-7	3.1	-1	1
COc1ccccc1N1CCN(C(=O)C(=O)N/N=C/c2ccccc2F)CC1	10561	nt	-3	-8	nt	nt	nt
OC1(c2cccc(F)c2)CCN(Cc2ccncc2)CC1	4818	-3	12	-19	0.4	nt	nt
O=C(COc1cccc(Cl)c1)NCc1ccccc1	4082	-1	-7	1	7.4	nt	nt
CCS(=O)(=O)N1CCN(C(=O)c2cccc3ccccc23)CC1	3025	10	-6	-10	2.5	21	8
CC(C)Cn1c(-c2ccc(C#N)cc2)nc2c1c(=O)[nH]c(=O)n2CC(C)C	nt	-6	-6	-6	-17	11	-11
O=C(Nc1ccc(N2CCOCC2)cc1)C1=NN(c2ccccc2)C(=O)CC1	5573	1	nt	-19	2.2	1	10
COc1ccc(NC(=O)c2cc(F)cc(F)c2)cc1Cl	9850	-5	1	-37	1.9	21	13
Cc1cccc(NC(=S)NCc2ccc3c(c2)OCO3)c1	2446	3	5	-2	2.8	15	-2
CCO[C@H]1OC(C(N)=O)=C[C@@H](C(C)(C)C)[C@@H]1CCCO	2862	nt	-6	-12	nt	nt	nt
Cc1cc2nc(SCC(=O)Nc3ccccc3C(=O)O)[nH]c2cc1C	3260	2	7	-13	2.5	5	1
O=C(Nc1ccc2c(c1)OCCO2)c1ccc(Cl)cc1	4154	15	-4	-32	2.5	9	-3
COc1ccc2nc(SCC(=O)Nc3ccc4c(c3)CCC4)[nH]c2c1	2695	-8	-1	-21	-9.1	-1	5
O=C(CCC1CCCC1)NCCCN1CCOCC1	9674	-2	-4	-15	3.5	7	9
CN(C)c1ccc(/C=C2\SC(=S)N(Nc3ncc(C(F)(F)F)cc3Cl)C2=O)cc1	10036	-18	-3	-22	-9.0	5	-10
CC(C)N(C(=O)CN1C(=O)C(=O)c2ccccc21)c1ccccc1	5140	2	-5	-9	6.1	18	5
CC1CCN(C(=O)c2ccc(-c3ccccc3Cl)o2)CC1	?	12	-1	-84	13	17	12
CN(C(=O)COC(=O)C1CCN(S(=O)(=O)c2cccs2)CC1)C1CCS(=O)(=O)C1 (stereo not drawn)	20892*	-3	3	8	6.9	6	13
O=C(Cc1csc(Nc2nc(=S)[nH]c3ccccc23)n1)NCCCN1CCN(c2cccc(Cl)c2)CC1	4238	1	5	-4	2.3	-10	7
Cc1noc(C)c1Cc1c(Cl)cccc1Cl	2769	0	8	-8	1.7	nt	nt
Cc1cc(C)cc(OCC(=O)OC(C)C(=O)Nc2c(C)n(C)n(-c3ccccc3)c2=O)c1 (stereo not drawn)	4520	1	0	-24	4.4	5	4
Cc1nc(C)c(-c2nnc(-c3ccc(C(C)(C)C)cc3)o2)cc1C(=O)NN	2585	7	-17	-18	3.2	5	2

# Five successive entries from above:
SMILES	Autofluor counter	Sa ugtP lethal	BJeLR viability	PrP 5UTR inh	RN4220 kill	Mtb hypoxia inh	Mtb hypoxia inh growth
CN(C(=O)COC(=O)C1CCN(S(=O)(=O)c2cccs2)CC1)C1CCS(=O)(=O)C1 (stereo not drawn)	20892*	-3	3	8	6.9	6	13
O=C(Cc1csc(Nc2nc(=S)[nH]c3ccccc23)n1)NCCCN1CCN(c2cccc(Cl)c2)CC1	4238	1	5	-4	2.3	-10	7
Cc1noc(C)c1Cc1c(Cl)cccc1Cl	2769	0	8	-8	1.7	nt	nt
Cc1cc(C)cc(OCC(=O)OC(C)C(=O)Nc2c(C)n(C)n(-c3ccccc3)c2=O)c1 (stereo not drawn)	4520	1	0	-24	4.4	5	4
Cc1nc(C)c(-c2nnc(-c3ccc(C(C)(C)C)cc3)o2)cc1C(=O)NN	2585	7	-17	-18	3.2	5	2

# Continuation.
SMILES	Autofluor counter	Sa ugtP lethal	BJeLR viability	PrP 5UTR inh	RN4220 kill	Mtb hypoxia inh	Mtb hypoxia inh growth
Cc1ccc(-n2cc(CN(C)CCc3cn[nH]c3)c(-c3cccc(C)c3)n2)cc1	2255	-4	4	-18	1.1	-2	0
CN(C(=S)NC(=O)c1ccc(Cl)cc1)C1CCCCC1	5565	14	-3	-21	-1.8	4	0
Cc1ccc(N(CC(=O)N/N=C/c2cc(C)n(-c3ccccc3C)c2C)S(C)(=O)=O)cc1	9131	nt	12	-27	nt	nt	nt
O=C(NCc1ccc(F)cc1)c1cc2c(s1)CS(=O)(=O)C2	5003	8	-6	-3	0.7	-7	1
O=C1Cc2cc(O)ccc2O1	3459	3	nt	-24	3.3	16	8
O=C(Nn1c(-c2ccc(Cl)cc2)nc2ccccc2c1=O)c1cccnc1Cl	3062	-3	2	-25	20	9	4
Cc1ccc(NS(=O)(=O)c2ccc3c(c2)NC(=O)CCS3)c(Cl)c1	5225	90*	0	-19	96*	15	8
Cc1nc2ccccc2c(=O)n1N=C1C(=O)N(C)c2ccccc21	nt	-3	nt	nt	14	10	13
O=C(O)CN1C(=O)NC2NC(=O)NC21 (stereo not drawn)	11075	13	-16	-16	2.2	11	3
O=C(NC1=NCCS1)c1ccc([N+](=O)[O-])cc1Cl	4525	5	8	-18	-0.4	5	2
O=C(NCc1ccco1)c1ccc2c(c1)C(=O)N(Cc1ccccc1)C2=O	10302	4	5	-8	-1.4	0	13
CC(=O)Nc1ccc2nc(C)n(Cc3ccc(Cl)cc3)c(=O)c2c1	2629	1	-15	-30	1.5	nt	nt
CC(O)c1ccc(OCCN(C)c2ccccn2)cc1 (stereo not drawn)	3330	7	-12	-33	6.1	15	4
Cc1nc(C(F)(F)F)c(C(=O)NC(=O)Nc2ccccc2)s1	16731*	7	-7	-16	3.7	10	8
COc1ccccc1CCNC(=O)CCCn1nc(C)c2c(C)n(-c3ccc(C)cc3)nc2c1=O	5549	-7	0	1	5.7	-7	-4
Cc1ccc(/C=N/NC(=O)CSc2nc3ccccc3n2Cc2ccccc2)o1	2162	nt	-2	-20	nt	nt	nt

# Whole records as entered above.
# Results for O=C(NCc1ccc(F)cc1)c1cc2c(s1)CS(=O)(=O)C2 = Autofluor counter: 5003; Sa ugtP lethal: 8; BJeLR viability: -6; PrP 5UTR inh: -3; RN4220 kill: 0.7; Mtb hypoxia inh: -7; Mtb hypoxia inh growth: 1
# Results for O=C(Nn1c(-c2ccc(Cl)cc2)nc2ccccc2c1=O)c1cccnc1Cl = Autofluor counter: 3062; Sa ugtP lethal: -3; BJeLR viability: 2; PrP 5UTR inh: -25; RN4220 kill: 20; Mtb hypoxia inh: 9; Mtb hypoxia inh growth: 4
# Results for CC(O)c1ccc(OCCN(C)c2ccccn2)cc1 (stereo not drawn) = Autofluor counter: 3330; Sa ugtP lethal: 7; BJeLR viability: -12; PrP 5UTR inh: -33; RN4220 kill: 6.1; Mtb hypoxia inh: 15; Mtb hypoxia inh growth: 4
